FGF22 binding – shifts melting point of recombinant human FGF22; Q9HCT0; recombinant FGF22 thermal shift, SYPRO orange fluorescence; percent of sucrose octasulfate shift, DMSO zero; calls only at 9.99 µM; actives 1.5% (n = 340,000);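 active = melting point raised past a set limit in the mean and every replicate; three in four hits are not shown here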
Target sequence (Q9HCT0 whole entry, looked up): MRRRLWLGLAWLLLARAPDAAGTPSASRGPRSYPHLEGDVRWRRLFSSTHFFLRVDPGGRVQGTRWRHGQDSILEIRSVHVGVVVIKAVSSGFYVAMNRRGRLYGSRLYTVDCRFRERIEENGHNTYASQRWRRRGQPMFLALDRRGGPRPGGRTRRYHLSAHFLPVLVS
HNF4A DNA FP – change in binding of human HNF4 alpha to DNA; P41235; HNF4a-FITC DNA binding, fluorescence polarization, 1 h; activity change, % at 10 µM; actives 0.3% (n = 360,000); AID 1224865; in the data active = activity change above about 30%, passing the limit was not always enough;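 note: controls were the assay level and a saturating level of protein; the project sought stronger binding though the title names inhibitors; some compounds called inactive have numbers as strong as hits; positive values seem to mean higher polarization but the record does not say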
Target sequence (P41235 whole entry, looked up): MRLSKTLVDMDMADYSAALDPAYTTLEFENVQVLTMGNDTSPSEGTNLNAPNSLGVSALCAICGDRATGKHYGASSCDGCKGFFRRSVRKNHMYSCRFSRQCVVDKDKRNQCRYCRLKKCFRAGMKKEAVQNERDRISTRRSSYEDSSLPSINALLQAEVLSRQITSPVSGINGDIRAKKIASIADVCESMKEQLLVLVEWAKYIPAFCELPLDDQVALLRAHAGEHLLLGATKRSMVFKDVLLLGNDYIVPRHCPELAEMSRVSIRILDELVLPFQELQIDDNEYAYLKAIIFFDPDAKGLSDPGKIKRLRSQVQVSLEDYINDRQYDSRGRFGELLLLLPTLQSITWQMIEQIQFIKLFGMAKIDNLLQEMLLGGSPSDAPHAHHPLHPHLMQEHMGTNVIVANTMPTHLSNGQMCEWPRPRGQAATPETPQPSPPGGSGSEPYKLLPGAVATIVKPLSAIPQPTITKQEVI
UCH37 inh – blocks the human deubiquitinase UCH37; Q9Y5K5; purified proteasome/UCH37, Ub-AMC cleavage fluorescence; inhibition, % (no concentration beside the values); actives 0.33% (n = 330,000); AID 588478;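 active = mean of two replicates above 20%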;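 note: 0% = compound-free wells with enzyme and 100% = wells lacking proteasome; stock transfer was 100 nL into about 20 µL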
Target sequence (Q9Y5K5 whole entry, looked up): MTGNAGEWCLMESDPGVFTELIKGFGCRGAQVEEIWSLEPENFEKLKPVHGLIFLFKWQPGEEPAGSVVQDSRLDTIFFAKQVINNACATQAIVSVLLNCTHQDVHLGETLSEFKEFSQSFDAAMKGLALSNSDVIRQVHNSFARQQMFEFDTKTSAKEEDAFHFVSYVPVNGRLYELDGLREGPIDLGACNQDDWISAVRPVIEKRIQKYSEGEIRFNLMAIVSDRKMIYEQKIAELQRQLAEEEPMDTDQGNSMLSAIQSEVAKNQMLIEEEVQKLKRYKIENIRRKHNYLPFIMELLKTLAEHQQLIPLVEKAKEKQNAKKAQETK
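Material: Human UCH37 enzyme supplied as purified proteasome complex | Schedule: 30 min compound-proteasome preincubation then 25 min substrate reaction, room temperature | Detection: AMC fluorescence from Ub-AMC cleavage, excitation 355 nm, emission 460 nm | Benchmarks: Wells without proteasome as full block, compound-free enzyme plus substrate as uninhibited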
Ecoli rRNA inh – selective bacterial rRNA inhibition in E. coli | E. coli WT GFP vs humanized-ribosome RFP mutants, fluorescence, 24 h; active compounds read low; DMSO median 0, no signal -100 | GFP signal change (wild-type ribosome), % (no concentration beside the values) | actives 1.6% (n = 350,000) | AID 720706;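 active = significant combined selectivity score with lowered wild-type GFP, culture density cut under 30%, mutant RFP and density less affected; inactive = any of these conditions unmet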; note: one replicate is shown; some compounds called inactive have numbers as strong as hits
B2AR ag – agonists of human beta-2 adrenergic receptor inducing internalization. Am2.2-beta2AR cells, FAP receptor internalization, flow cytometry; reference of the scale not given here. response, % (concentration not given with the values). actives 0.43% (n = 340,000). AID 504454;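 active = response above a set limit, near 3 SD of response in nonfluorescent compounds, cut at about 42% in these data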;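 note: stock transfer was 100 nL into about 11 µL; a reference agonist was the positive control; negative values mostly stem from fluorescent compounds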
ALR H2O2 inh – blocks human ALR sulfhydryl oxidase activity | AID 485317 | inhibition, % (concentration not given with the values) | actives 3.8% (n = 290,000) | purified ALR, DTT oxidation, H2O2 HRP-luminol luminescence;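 active = mean and each replicate at 75% or more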;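 note: stock transfer was 7.5 nL into about 7.5 µL; 0% = neutral wells and 100% = wells with inactivated enzyme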
E coli growth – E. coli growth inhibition; actives 0.21% (n = 330,000); Escherichia coli growth, OD600, 23 h; active compounds read low; AID 1053175; OD600 absorbance (test concentration not listed);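 active = OD600 absorbance below the run mean of sample wells minus 3.6 SD, in any replicate, cut at about 0.56 in these data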;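 note: stock transfer was 300 nL into about 60 µL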
Ecoli rRNA inh OD600 – also measured in Ecoli rRNA inh; calls as there; OD600 change, %; measured here: OD600 growth;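 optical density of the mix in the first replicate; 0 = DMSO median and -100 = no signal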
Ecoli rRNA inh RFP – recorded beside Ecoli rRNA inh, whose call it bears; RFP signal change, %; measured here: RFP humanized mutant strains;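 first replicate; 0 = DMSO median and -100 = no signal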
The depositor's hits bear a star; i = inactive; nt = not tested or not shown. Not all compounds are listed. The share of hits here may be higher or lower than overall.

SMILES	FGF22 binding	HNF4A DNA FP	UCH37 inh	Ecoli rRNA inh	Ecoli rRNA inh OD600	Ecoli rRNA inh RFP	B2AR ag	ALR H2O2 inh	E coli growth
COc1ccc(C(CNC(=O)CSc2ccccc2)N2CCOCC2)cc1 (stereo not drawn)	i	0.1	nt	9.3	12.6	3.5	nt	nt	nt
O=C1N(c2ccccc2)C[C@@H]2C[C@@H](c3cccs3)N3CCC[C@@]123	i	1.7	4.4	8.9	3.1	1.0	2.2	-28.2	0.698
CCOc1ccc(/C=N/OCC(=O)Nc2ccc3c(c2)OCO3)cc1	i	4.4	nt	-23.0	-43.0	13.4	9.6	-4.6	nt
N#Cc1c(-c2ccc(Cl)cc2)c2c([nH]c1=O)-c1ccccc1OC2	i	-6.3	i	-3.4	2.7	1.7	1.8	nt	0.705
Cc1ccc([C@H]2C[C@@H](O)[C@H](n3cc(COC(=O)c4ccccc4)nn3)CN2C(=O)c2cccs2)cc1	i	3.1	nt	-0.9	-5.5	0.1	nt	nt	nt
O=C(NNC(=O)c1ccccc1Br)c1cccs1	i	3.8	3.7	11.6	13.3	-4.4	7.8	54.1	0.711
O=C(N/C(=C/c1ccccc1)C(=O)N1CCCCC1)c1ccco1	i	0.8	6.1	nt	nt	nt	5.9	0.3	0.733
O=S(=O)(Nc1ccc(-c2cn3ccsc3n2)cc1)c1ccc2c(c1)OCCO2	nt	2.5	3.5	nt	nt	nt	-9.6	nt	0.645
O=C(COC(=O)c1cnc(Cl)c(Cl)c1)NCc1ccc2c(c1)OCO2	i	4.2	0.8	9.7	12.6	2.8	0.8	-4.9	0.664
Cc1cc(C)n2nc(CC(=O)NNC(=O)COc3ccccc3)nc2n1	i	5.1	-2.2	-1.2	-5.5	-4.3	2.6	-0.8	0.693
C[C@H](NC(=O)[C@@H]1CCCN1C(=O)[C@@H]1CCCN1C(=O)c1cccc(Cl)c1)c1ccccc1	i	0.2	nt	-0.4	0.2	-1.4	nt	nt	nt
CN(C)CCCn1c(=S)[nH]c2ccccc2c1=O	i	4.8	5.4	6.5	12.4	2.2	-15.5	27.2	0.678
CCCOC(=O)Nc1cccc(C(C)=O)c1	nt	-1.9	-1.7	nt	nt	nt	-2.3	0.0	0.667
COc1ccc(NC(=O)N2Cc3ccccc3CC2C(=O)NC(C)(C)C)cc1 (stereo not drawn)	nt	-3.0	1.3	nt	nt	nt	-2.6	-7.4	0.692
Cc1ccc(C(C)C)c(OCCOCCN2CCNCC2)c1	i	3.2	8.8	0.2	-3.7	2.4	-9.7	-15.5	0.595
O=C(NCc1ccc(Cl)cc1)c1ccc(CSc2nc3ccncc3[nH]2)cc1	nt	-27.6	-1.5	0.0	-5.8	-8.8	4.2	nt	0.65
COc1ccccc1NC(=O)CN1CCN(Cc2ccccc2)CC1	nt	-0.4	1.7	nt	nt	nt	3.7	-34.8	0.679
CCOc1ccc(NC(=O)C2CCCN(S(=O)(=O)c3c(C)noc3C)C2)cc1 (stereo not drawn)	i	-1.4	-0.2	-8.3	9.2	-2.3	-6.4	-2.0	0.688
Cc1ccc(S(=O)(=O)N2CCCCC2c2cccnc2)c(C)c1C (stereo not drawn)	i	0.8	4.0	-22.9	-21.4	2.8	7.3	nt	0.644
CCCN=C1N(CC)C[C@@H]2[C@@H]3C(=O)N(C)C(=O)[C@@H]3[C@](CC)(C(=O)OC)N12	i	-0.8	1.1	nt	nt	nt	-8.2	nt	0.669
Cc1cc(Nc2cccc(F)c2)nc(NCc2ccccc2)n1	i	3.5	0.6	4.5	-15.8	4.1	9.9	-7.6	0.542
N#C/C(=C\c1ccc(OCc2ccc(Cl)cc2)cc1)C(=O)Nc1cccc(C(=O)O)c1	i	-2.1	-1.7	-26.5*	-5.8*	-3.5*	-0.9	0.8	0.66
COc1ccc(S(N)(=O)=O)cc1-c1nnc2c3ccccc3c(C)nn12	i	-1.9	1.6	3.8	-1.3	-4.0	0.6	-13.9	0.71
O=C(Nc1ccc(Oc2ccc3ccccc3c2)cc1)c1ccco1	nt	2.1	1.3	nt	nt	nt	-3.3	-6.3	0.654
O=C(Nc1ccc(S(=O)(=O)Nc2nccs2)cc1)C1CC(=O)N(c2ccccc2)C1 (stereo not drawn)	nt	2.1	2.1	nt	nt	nt	-2.3	1.7	0.656
CC12CCC(C(=O)N3CCc4ccccc43)(CC1=O)C2(C)C (stereo not drawn)	nt	1.5	-0.3	nt	nt	nt	-10.5	-2.4	0.703
COc1ccccc1CNC(=S)NC1CCCC1	i	-1.5	1.0	9.1	13.9	4.3	7.5	0.4	0.595
C#CCOC(=O)C(NC(=O)c1ccccc1)=C1CCCCC1	nt	-0.5	1.6	nt	nt	nt	-4.1	-3.1	0.731
CCOC(=O)CCCCCC(=O)Nc1ccc2c(c1)C(=O)N([C@@H](C)CO)C[C@@H](C)[C@H](CN(C)S(=O)(=O)c1cccs1)OCCCC[C@H](C)O2	i	1.6	nt	-0.1	1.2	3.7	nt	nt	nt
COc1ccc([N+](=O)[O-])c(OC)c1C(=O)NC(=O)Nc1c(F)cc(F)cc1F	i	1.9	5.7	-0.1	5.0	0.8	0.8	-7.2	0.688
COc1cc2c(cc1OC)CN(Cc1cc(=O)oc3c(C)c(C)ccc13)CC2	i	0.7	-7.5	-0.6	0.8	-9.8	-20.8	-10.3	0.681
Cc1nn2c(nc1=O)NNC2(C)C(C)(C)C (stereo not drawn)	i	-0.6	0.8	3.7	-0.6	-4.0	-4.1	-0.7	0.712
CCC(C)N(C(=O)COC(=O)CSc1ccc(C)c(C)c1)C1CCS(=O)(=O)C1 (stereo not drawn)	i	-1.6	0.6	-4.4	3.5	-2.5	0.4	-11.6	0.692
Fc1cccc(Cl)c1CNC(c1ccccc1)c1ccccc1	i	2.1	2.6	-7.8	-5.8	3.0	23.2	1.0	0.701
Cc1cc(-c2onc(C)c2C(=O)N/N=C/c2ccccc2)no1	i	0.6	nt	9.4	13.0	-0.7	-3.8	-2.1	nt
COc1ccc(OC)c2[nH]c(=O)c(CCNC(=O)c3ccc4c(c3)OCO4)cc12	i	-0.8	-1.0	-2.8	0.4	-0.4	5.6	-13.2	0.686
COc1ccccc1-n1cnnc1SCC(=O)NC1CCCCC1	i	5.0	0.4	1.6	-1.7	1.5	-3.0	-1.3	0.724
Cc1cccc(OCCCC(=O)Nc2ccc(S(=O)(=O)N3CCCC3)cc2)c1	nt	0.2	0.1	nt	nt	nt	14.1	-4.2	0.691
CN1C(=S)SC(/[N+]([O-])=C/c2cccnc2)C1(C)C (stereo not drawn)	nt	4.5	2.5	nt	nt	nt	9.6	3.2	0.68
Cc1ccc(Cn2c(SCC(C)C)nc3c2c(=O)[nH]c(=O)n3C)cc1	nt	1.7	5.8	nt	nt	nt	-0.9	nt	0.798
O=C(Nc1ccccc1C(=O)N1CCCCCC1)c1ccc(Cl)cc1	i	5.0	3.6	-23.5*	-16.1*	0.4*	1.7	-2.2	0.71
Cc1cccc(C)c1NC(=O)CNC(=O)CNC(=O)c1ccc2ccccc2c1	i	2.0	nt	7.6	10.6	3.0	nt	nt	nt
C[C@H](NC(=O)c1ccccc1)C(=O)N1CCN(Cc2ccc3c(c2)OCO3)CC1	i	0.8	2.4	3.5	8.6	-1.4	2.3	-3.7	0.67
CC(C)CC(NC(=O)C(NC(=O)OC(C)(C)C)C(C)C)C(=O)NC(CCC(=O)OCc1ccccc1)C(N)=O (stereo not drawn)	nt	-3.3	2.8	nt	nt	nt	2.3	2.5	0.684
Cc1cc(C)c(OCC(=O)OCC(=O)NCCC2=CCCCC2)c(C)c1	i	4.9	3.0	2.7	17.1	-0.5	-1.8	nt	0.671
CCOC(=O)CN1C(=O)S/C(=C/c2ccc(OCc3ccc(C(=O)O)cc3)cc2)C1=O	i	1.4	7.0	-5.2	-3.6	0.4	-0.2	8.5	0.654
CCN(CC)CCCN(Cc1cc2cc3c(cc2[nH]c1=O)OCO3)C(=S)NC	i	-2.3	-100.2	11.3	-1.4	0.1	4.5	-31.0	0.707
CC(=O)Nc1ccc2c(c1)Cc1ccc(Cl)cc1-2	i	-4.4	5.4	-0.2	7.7	-3.7	2.0	nt	0.666
Cc1cccc(NC(=O)C2CCN(C(=O)NCc3ccccc3)CC2)c1C	i	1.0	0.5	6.4	7.4	-1.3	3.4	1.6	0.67
Cc1ccc(Cl)cc1N1CCN(C(=O)C2CCN(S(=O)(=O)c3cccnc3)CC2)CC1	nt	-2.4	5.0	nt	nt	nt	20.7	nt	0.728
COc1cc(C(=O)NNC(=O)Cc2cccs2)cc(OC)c1OC	i	-2.5	4.7	9.0	14.1	-2.1	1.6	4.3	0.699
CCc1nc(SCC(=O)N2CCOCC2)c2c(=O)n(C)c(=O)n(C)c2n1	i	-1.3	-1.3	9.1	26.3	6.6	-3.5	-2.9	0.717
COC(=O)c1sccc1Oc1c(Cl)cccc1[N+](=O)[O-]	i	0.1	0.3	-12.7	-15.3	-7.3	-2.7	-7.6	0.651
CC12COC3(C(=O)Nc4ccc([N+](=O)[O-])cc4)CC1CCC32C (stereo not drawn)	i	0.8	3.0	0.9	5.1	1.4	-3.4	1.2	0.697
c1ccc(N2CCN(c3ccc4nncn4n3)CC2)nc1	i	-1.6	9.7	5.6	10.0	0.6	-21.2	0.0	0.727
COc1ccccc1Nc1nc(N)nc(CSC(=S)N2CCOCC2)n1	i	4.7	5.3	-11.7	-3.7	4.8	-2.5	-2.6	0.671
CCN1CCN(c2cc(C)c3cc(NC(=S)N4CCN(c5ccc(F)cc5)CC4)ccc3n2)CC1	i	3.1	-24.1	0.8	1.3	3.0	10.0	nt	0.684
CCN(CC)c1ccc(C2C(C(=O)OC)=C(C)NC(C)=C2C(=O)OC)cc1	nt	0.1	-46.5	nt	nt	nt	-3.8	98.8*	0.729
Cc1ccc(NS(=O)(=O)c2cc([N+](=O)[O-])ccc2NNC(=S)Nc2cc(C)ccc2C)c(C)c1	nt	13.7	9.3	nt	nt	nt	17.4	-2.3	0.641
O=C(CCC(=O)N(Cc1ccco1)C(C(=O)NC1CCCC1)c1ccncc1)Nc1cccnc1 (stereo not drawn)	nt	5.6	-0.1	nt	nt	nt	-4.6	nt	0.694
O=C(OC(C(=O)NCc1ccco1)c1ccc(Cl)cc1)c1cccs1 (stereo not drawn)	i	-3.4	1.6	-14.6	-5.9	-2.2	15.3	0.4	0.679

One compound at a time, as listed above. Order of screens: FGF22 binding, HNF4A DNA FP, UCH37 inh, Ecoli rRNA inh, Ecoli rRNA inh OD600, Ecoli rRNA inh RFP, B2AR ag, ALR H2O2 inh, E coli growth
Cc1cccc(NC(=O)C2CCN(C(=O)NCc3ccccc3)CC2)c1C in the list: i, 1.0, 0.5, 6.4, 7.4, -1.3, 3.4, 1.6, 0.67
CCOc1ccc(NC(=O)C2CCCN(S(=O)(=O)c3c(C)noc3C)C2)cc1 (stereo not drawn) in the list: i, -1.4, -0.2, -8.3, 9.2, -2.3, -6.4, -2.0, 0.688
O=C(OC(C(=O)NCc1ccco1)c1ccc(Cl)cc1)c1cccs1 (stereo not drawn) in the list: i, -3.4, 1.6, -14.6, -5.9, -2.2, 15.3, 0.4, 0.679
CCc1nc(SCC(=O)N2CCOCC2)c2c(=O)n(C)c(=O)n(C)c2n1 in the list: i, -1.3, -1.3, 9.1, 26.3, 6.6, -3.5, -2.9, 0.717

Source: PubChem BioAssay (several laboratories)
